gsp agonist: gsp mutant agonism; gsp mutant cells, cAMP HTRF, 30 min; control for the full effect not named in the record; Potency, µM (titrated, usually from 76.9 µM), inactives show top-dose activation (cAMP increase), most hits filed as activators; 340,000 compounds, 0.13% hits; active = well fitted activation curve with a large enough effect; inconclusive = small, poorly fitted or top-dose-only effect, or another doubt; inactive = no such curve, though single readings can be large or run the other way; cell line not stated here;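 note: phosphodiesterase inhibitor Ro 20-1724 added with compounds to block cAMP breakdown; potency is the fitted concentration of half-maximal effect; nearly all actives have a fitted effect of over 60% in size; about a fifth of the inactives were tested at one dose only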
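Cells in DMEM/10% FBS with G418 were pretreated with compounds in DMSO plus […] (300 uM stock) for 30 min at 37C. cAMP was measured by HTRF (cAMP-d2 plus anti-cAMP antibody-K) after 30 min at room temperature.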
ClpP mod: qHTS Assay for Activators of ClpP. 340,000 compounds, 1.9% hits. purified B. subtilis ClpP, FRET peptide cleavage, 20 min. Potency, µM (top dose mostly 57.5 µM), for inactives: at the top dose activity change, negative = active; active = well fitted falling curve with a large enough effect; inconclusive = small, poorly fitted or top-dose-only effect; inactive = no such curve, though single readings can be large or run the other way; note: potency is the fitted concentration of half-maximal effect; the source files actives as falling curves though it sought activators and does not explain the sign; nearly all actives have a fitted effect of over 65% in size; many hits overshoot -100%
Target sequence (P80244 whole entry, looked up): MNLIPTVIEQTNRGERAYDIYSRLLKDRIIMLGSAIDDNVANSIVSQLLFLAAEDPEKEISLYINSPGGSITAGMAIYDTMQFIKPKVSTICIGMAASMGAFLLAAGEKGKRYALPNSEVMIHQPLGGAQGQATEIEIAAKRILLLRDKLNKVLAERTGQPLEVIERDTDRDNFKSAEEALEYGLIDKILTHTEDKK
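FRET quenching reversal measured ClpP activation: 10 microg/mL B. subtilis ClpP at pH 8 with the FRET-FV decapeptide, read at 430 nm after 320 nm excitation. The 20-min minus 0-min signal was scaled between DMSO/no-enzyme wells and ADEP (5.8 microM final).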
D2 PAM: positive allosteric modulators of human D2 dopamine receptor. AID 624464. 360,000 compounds, 0.23% hits. potentiation, % (no concentration beside the values). DiscoveRx D2 beta-arrestin cells, luminescence, 90 min; 100% = 57 uM dopamine signal. P14416; active = potentiation of 50% or more; inconclusive = 30% to 50%; inactive = 30% or less;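 note: compound concentration not given in the record; tested on top of an EC20 dose of dopamine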
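PathHunter D2 cells, attached overnight at 37 deg C, received compound in DMSO plus dopamine at EC20 (50 nM final) for 90 min at 37 deg C. Beta-arrestin recruitment was read as luminescence after 1 h with detection reagent at ambient temperature.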
Menin MLL FP FL: menin-MLL binding inhibition, fluorescein peptide; Fluorescence polarization, fluorescein-MLL peptide displacement from menin; FP activity change, % at 61.4 µM; 290,000 tested, under 10 active; AID 1766; inconclusive = falling polarisation curve, or a change in total fluorescence; inactive = total fluorescence flat and polarisation flat or rising; no compound was filed as active; the % refers to the polarisation; negative = inhibition;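 note: % of control where 0% means no effect; inhibitors lower the polarisation; unlabelled MLL peptide was the positive control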
Sfp PPTase inh: inhibitors of Bacillus subtilis Sfp phosphopantetheinyl transferase | Q9F4F7 | Biochemical Sfp PPTase activity, qHTS | Potency, µM, for inactives: max response, negative = inhibition, actives largely listed as inhibitors | 310,000 compounds, 3.5% hits; active = well fitted inhibition curve with a large enough effect; inconclusive = small, poorly fitted or top-dose-only effect, or another doubt; inactive = no such curve, though single readings can be large or run the other way;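 note: the enzyme is Sfp with the accession as filed and its product quenches rhodamine fluorescence; potency is the fitted concentration of half-maximal effect; 0% = enzyme reaction without inhibitor and -100% = no enzyme wells; top concentration of the series not given in the record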
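Fluorescence-quenching assay with 15 nM Sfp, 5 uM rhodamine-CoA and 12.5 uM BHQ-2-labelled ybbR peptide in pH 7.6 Hepes/MgCl2 buffer. Enzyme was pre-incubated with compound for 15 min at room temperature. Rate was taken from the 30-min fluorescence change (525/598 nm).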
TRPV1 potentiator: human TRPV1 potentiation; Q8NER1; TRPV1-expressing cells, Fluo-8 calcium influx, capsaicin EC20 potentiation; host cell line not named in the record; control for the full effect not named in the record; potentiation, % at 8.33 µM; 320,000 compounds, 0.02% hits; AID 540277; active means potentiation above 80%; inconclusive means 30% to 80%; inactive means below 30%; note: 0% is about no effect
Target sequence (Q8NER1 whole entry, looked up): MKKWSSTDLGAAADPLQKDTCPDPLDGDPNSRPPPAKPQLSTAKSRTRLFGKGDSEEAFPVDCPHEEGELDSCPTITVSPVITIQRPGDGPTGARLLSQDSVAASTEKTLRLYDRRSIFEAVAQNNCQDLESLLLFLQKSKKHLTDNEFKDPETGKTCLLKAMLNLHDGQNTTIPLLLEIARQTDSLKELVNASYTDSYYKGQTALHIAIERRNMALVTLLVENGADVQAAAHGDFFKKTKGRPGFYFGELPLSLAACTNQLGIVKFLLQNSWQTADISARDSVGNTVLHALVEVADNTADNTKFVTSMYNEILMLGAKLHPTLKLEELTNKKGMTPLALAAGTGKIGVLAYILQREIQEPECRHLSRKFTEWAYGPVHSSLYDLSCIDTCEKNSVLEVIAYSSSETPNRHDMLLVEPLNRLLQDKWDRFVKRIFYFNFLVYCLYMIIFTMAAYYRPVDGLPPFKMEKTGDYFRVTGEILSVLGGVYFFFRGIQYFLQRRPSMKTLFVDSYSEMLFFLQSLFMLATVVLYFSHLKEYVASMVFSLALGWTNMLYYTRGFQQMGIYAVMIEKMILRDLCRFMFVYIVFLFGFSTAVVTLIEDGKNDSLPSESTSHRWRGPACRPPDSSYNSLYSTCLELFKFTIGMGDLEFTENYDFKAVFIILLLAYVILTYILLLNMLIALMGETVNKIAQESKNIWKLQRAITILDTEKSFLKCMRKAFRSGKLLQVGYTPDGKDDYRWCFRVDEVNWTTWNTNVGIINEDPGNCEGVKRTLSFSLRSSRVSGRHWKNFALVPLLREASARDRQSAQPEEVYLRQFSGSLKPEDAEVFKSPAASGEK
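TRPV1-expressing cells were cultured overnight at 35.5C and loaded with Fluo-8 calcium dye for 40 to 90 min at room temperature. After a 10 s baseline, compound was added and calcium influx was read kinetically for 3 min (ex 480/em 520 nm).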
gsp antagonist: gsp mutant antagonism | gsp-mutant cells, cAMP HTRF, 30 min; control for the full effect not named in the record | Potency, µM (highest dose often 76.9 µM), inactives show at the top dose activity change, negative = inhibition, usual class: inhibitors | 340,000 compounds, 0.4% hits | AID 624288; active = falling curve of any shape with a large fitted effect; inconclusive = falling curve, mostly with a smaller effect; inactive = flat or rising curve; cell line not stated here;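 note: intracellular cAMP measured with PDE inhibitor Ro 20-1724 present during compound exposure; potency is the fitted concentration of half-maximal effect; % is set by controls: 0 for no effect and ±100 for the full control effect; nearly all actives have a fitted effect of over 65% in size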
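Cells in G418 medium, seeded 16-24 h, 37C; buffer exchange to DPBS + 1 mM CaCl2, 0.5 mM MgCl2, 0.05% BSA; cpds in DMSO + […] (300 uM stock), 30 min 37C; HTRF cAMP detection.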
Active calls of the source: *; ? = inconclusive; . = no result given; [ ] = remark or other dose. Compounds were not picked by outcome; overall some 5.1% were active at least once.

SMILES	gsp agonist	ClpP mod	D2 PAM	Menin MLL FP FL	Sfp PPTase inh	TRPV1 potentiator	gsp antagonist
O=C(NC12CC3CC(CC(C3)C1)C2)C1CCCN1C(=O)Nc1ccccc1 (stereo not given)	14%[15.4 µM]	.	0	.	6%	-2	2%
COc1cc2c3c(c1)c(N=NC(N)=S)c(O)n3C(C)(C)C=C2C	18%	.	3	4.7	-2%	-14	6%
CCCNC(=O)COC(=O)c1cccnc1Nc1ccccc1F	?	-2.5%	-19	-2.9	-6%	-27	-10%
CCOc1ccc(NC(=O)C2CC3CCC2C3)cc1 (stereo not given)	7%[15.4 µM]	.	-3	.	.	.	-9%
N#Cc1c(-c2ccccc2)cc(-c2ccccc2)nc1SCc1nnc(-c2ccccc2)o1	-5%	-22%	1	9.4	7%	.	28%
Cn1c(=O)c2c(nc(CN3CCN(C(=O)c4ccco4)CC3)n2CC(N)=O)n(C)c1=O	?	-5.1%	-6	.	8%	2	8%
Cc1cnc(NC(=O)CSc2nnc(Cc3ccccc3)o2)s1	-51%[inhibitor]	-0.6%	5	5.9	-12%	.	1%
O=c1cc(CO)oc(C(Nc2ccccn2)c2ccccc2F)c1O (stereo not given)	-2%	-4.9%	-3	.	.	.	-6%
COC(=O)CSc1nnc2c(C)cc3cc4c(cc3n12)OCCO4	.	.	.	0.2	10%	3	.
O=C(CC(C(=O)O)c1c(F)cccc1Cl)c1ccc(Cl)cc1 (stereo not given)	-28%	-0.7%	4	-9.4	-4%	7	-5%
CC(C)C[C@H](NC(=O)Nc1ccc2c(c1)OCCO2)C(=O)O	-28%	-0.3%	-7	1.8	11%	-5	3%
CNc1ccc(/C=C/C(=O)c2ccc3c(c2)OCCO3)cc1[N+](=O)[O-]	-32%	-1.0%	20	4.0	-18%	-8	-3%
Cc1ccccc1CCN(C(=O)c1csnn1)C(C(=O)NC1CCCC1)c1ccco1 (stereo not given)	-6%[15.4 µM]	?	-12	.	3%	-5	-2%
Cc1ccc(N2C(=O)c3ccc(C(=O)N4CCN(c5ccccc5F)CC4)cc3C2=O)cc1	-9%	-2.5%	1	1.5	26%	-3	-3%
CC(=O)Nc1cccc(C(=O)OCC(=O)N2CCN(C(=O)COC(=O)c3cccc(NC(C)=O)c3)CC2)c1	1%	-8.8%	-2	.	.	.	12%
CSc1nc(-c2ccc(Cl)cc2)nn1S(=O)(=O)c1ccccc1	-25%	0.5%	-3	2.3	2%	20	-11%[15.4 µM]
CCc1ccc(C2C3=C(CC(C)(C)CC3=O)OC3=C2C(=O)CC(C)(C)C3)cc1	-8%[15.4 µM]	.	-9	7.3	-3%	-5	3%
CCn1c(=S)[nH]c2ccccc21	0%	-1.4%	-19	4.5	-9%	2	1%
CC(CN1CCCCC1)OC(=O)c1ccc(Cl)cc1 (stereo not given)	-2%	1.2%	-43	1.5	10%	7	7%
COCCNC(=O)c1ccc(NS(C)(=O)=O)cc1	0%	-2.7%	12	0.9	-16%	0	-1%
CCc1nc(C)cn1S(=O)(=O)c1ccc([N+](=O)[O-])cc1	-9%[15.4 µM]	.	0	-0.9	13%	0	.
O=C(CCC1CCCCC1)N1CCN(Cc2ccc3c(c2)OCO3)CC1	-2%	2.1%	-17	1.4	-1%	2	-2%
CSc1cccc(NC(=O)c2ccco2)c1	-20%	0.4%	-9	0.0	5%	-4	-9%
O=C(NCc1ccco1)c1cc2nc(-c3ccc4c(c3)OCO4)cc(C(F)(F)F)n2n1	?	?	-17	3.9	?	-1	0%
O=C(CCCN1C(=O)/C(=C/c2ccc(F)cc2)SC1=S)Nc1ccc(C(=O)O)cc1	-2%	0.2%	-10	.	.	.	.

13 structures already listed, arranged by molecular weight, lowest first.
SMILES	gsp agonist	ClpP mod	D2 PAM	Menin MLL FP FL	Sfp PPTase inh	TRPV1 potentiator	gsp antagonist
CSc1cccc(NC(=O)c2ccco2)c1	-20%	0.4%	-9	0.0	5%	-4	-9%
CCOc1ccc(NC(=O)C2CC3CCC2C3)cc1 (stereo not given)	7%[15.4 µM]	.	-3	.	.	.	-9%
CC(CN1CCCCC1)OC(=O)c1ccc(Cl)cc1 (stereo not given)	-2%	1.2%	-43	1.5	10%	7	7%
COc1cc2c3c(c1)c(N=NC(N)=S)c(O)n3C(C)(C)C=C2C	18%	.	3	4.7	-2%	-14	6%
CCCNC(=O)COC(=O)c1cccnc1Nc1ccccc1F	?	-2.5%	-19	-2.9	-6%	-27	-10%
CNc1ccc(/C=C/C(=O)c2ccc3c(c2)OCCO3)cc1[N+](=O)[O-]	-32%	-1.0%	20	4.0	-18%	-8	-3%
Cc1cnc(NC(=O)CSc2nnc(Cc3ccccc3)o2)s1	-51%[inhibitor]	-0.6%	5	5.9	-12%	.	1%
O=C(NC12CC3CC(CC(C3)C1)C2)C1CCCN1C(=O)Nc1ccccc1 (stereo not given)	14%[15.4 µM]	.	0	.	6%	-2	2%
CCc1ccc(C2C3=C(CC(C)(C)CC3=O)OC3=C2C(=O)CC(C)(C)C3)cc1	-8%[15.4 µM]	.	-9	7.3	-3%	-5	3%
Cn1c(=O)c2c(nc(CN3CCN(C(=O)c4ccco4)CC3)n2CC(N)=O)n(C)c1=O	?	-5.1%	-6	.	8%	2	8%
O=C(NCc1ccco1)c1cc2nc(-c3ccc4c(c3)OCO4)cc(C(F)(F)F)n2n1	?	?	-17	3.9	?	-1	0%
Cc1ccc(N2C(=O)c3ccc(C(=O)N4CCN(c5ccccc5F)CC4)cc3C2=O)cc1	-9%	-2.5%	1	1.5	26%	-3	-3%
CC(=O)Nc1cccc(C(=O)OCC(=O)N2CCN(C(=O)COC(=O)c3cccc(NC(C)=O)c3)CC2)c1	1%	-8.8%	-2	.	.	.	12%

Other compounds.
SMILES	gsp agonist	ClpP mod	D2 PAM	Menin MLL FP FL	Sfp PPTase inh	TRPV1 potentiator	gsp antagonist
C=C(Br)Cn1c(CC)nc2ccccc21	-15%	-1.6%	-8	0.5	9%	-8	0%
CCc1c(C)sc(NC(=S)Nc2nc(C)cc(C)n2)c1C(=O)OC	?	.	-6	-2.1	-23%	2	-14%
CSCC[C@H](NC(=O)C1CCN(S(=O)(=O)c2ccccc2)CC1)C(=O)NC1CC1	?	0.8%	-10	.	5%	1	3%
C[C@@H]1CN([C@H](C)CO)C(=O)CCCn2nncc2CO[C@@H]1CN(C)C(=O)c1ccncc1	0%	0.1%	-5	.	.	.	.
CC1CN(S(=O)(=O)c2ccc(C(=O)Nc3nc(-c4cc5ccccc5o4)cs3)cc2)CC(C)O1 (stereo not given)	?	.	6	5.1	6%	-5	12%
CCCn1c(N2CCN(C(=O)NCc3ccccc3)CC2)nc2ccccc21	-2%[15.4 µM]	.	-2	1.8	8%	-19	-9%
CCOC(=O)c1c(C)n(C)c2ccc(OC(=O)c3ccco3)cc12	21%	0.2%	-2	2.2	2%	-1	0%
COc1cccc(/C=C/C(=O)Nc2cc(S(=O)(=O)N3CCOCC3)ccc2OC)c1	2%[15.4 µM]	-0.2%	-15	.	.	?	8%
CC(C)N1CC(C(=O)Nc2ccc(F)c(Cl)c2)CC1=O (stereo not given)	1%	-1.2%	-1	2.3	9%	7	-5%
O=C(CCCC(=O)N(CC(=O)NC1CCCC1)C1CCCC1)Nc1ccccn1	3%	1.9%	-16	12	-1%	10	3%
Cc1ccc2c(c1)c1c(n2CC(O)CN2CCOCC2)CCCC1 (stereo not given)	.	.	.	0.2	-3%	-5	.
OCCNc1nc(Nc2ccc(O)cc2)nc2ccccc12	-12%	0.3%	-3	3.1	-11%	6	-25%
CC(C)(C)n1nnnc1C(c1cc2cc3c(cc2[nH]c1=O)OCO3)N1CCN(c2ccccc2)CC1 (stereo not given)	-50%[inhibitor]	22µM*	14	1.2	-9%	7	2%
CC(=O)NC(CSC(CC(=O)c1ccco1)c1ccc(C)cc1)C(=O)O (stereo not given)	5%	-5.6%	-12	-1.6	-4%	-6	1%
CCOc1ccccc1N1CCN(C(=O)NCc2ccc(F)cc2)CC1	-55%[15.4 µM]	.	-5	-3.4	20%	-9	8%
OCCC1CN(Cc2cccc(C(F)(F)F)c2)CCN1Cc1ccccc1 (stereo not given)	-18%[15.4 µM]	.	-12	4.1	4%	-19	11%
O=Cc1c(N2CCOCC2)nc2ccccn2c1=O	27%	.	5	-2.2	23%	8	11%
N#C/C(=N\Nc1cccc2ccccc12)c1nnc2n1CCCCC2	14%	0.8%	1	?	?	-1	?
O=C(Nc1ccc(S(=O)(=O)N2CCOCC2)cc1)c1ccc(Cl)c([N+](=O)[O-])c1	?	.	0	.	.	.	-21%
Cc1ccc(C)c(NC(=O)C(=O)NCCc2c[nH]c3ccccc23)c1	-1%	.	-1	1.0	18%	?	-3%
COc1cc(-c2cc(OC)c3c(C)oc(C)c3c(=O)c2)ccc1O	-8%	1.3%	-5	?	?	-10	1%
Cc1c2cnn(CC(=O)NC3CCCC3)c(=O)c2c(C)n1Cc1ccccc1	2%	-5.5%	-10	-1.6	4%	-18	0%
Cc1ccc[n+](/C(C(=S)NCc2ccco2)=C(/[O-])c2ccccc2Cl)c1	6%	-0.1%	-3	?	45µM*	2	3%
CCOC(=O)N1CCN(S(=O)(=O)c2ccc(C(=O)N(CCN(C)C)c3nc4ccc(Cl)cc4s3)cc2)CC1	0%	-0.8%	-21	.	-7%	6	10%
COc1ccc(NCc2nnc(SCC(=O)Nc3cc(C)cc(C)c3)o2)cc1	22%	0.8%	13	-1.1	-8%	6	5%
CCc1cccc(NC(=S)N(CCOC)C(C)c2ccco2)c1 (stereo not given)	24%	0.0%	-10	2.4	56µM*	-23	-12%
COc1ccc(C(=O)CN2C(=O)COc3ccccc32)cc1	2%	.	-1	0.3	16%	6	0%
O=C(N/N=C/c1cccnc1)c1cccc(F)c1	17%[15.4 µM]	?	-12	-0.4	18%	13	2%
